Bioassay records deposited in PubChem by several laboratories.
Sa ugtP lethal: growth inhibition of S. aureus ugtP deletion strain | growth inhibition, % (test concentration not listed) | 330,000 tested, 0.54% active | S. aureus RN4220 ugtP deletion, OD600 growth, 16 h; some inactives read as strong as hits | AID 1259309;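 active = z-score under -3 and OD600 up to 0.15 on both plates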;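 note: plate controls were untreated wells for no effect and antibiotic for full effect; wells of about 80 µL received 100 nL stock; the first replicate is given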
Autofluor counter: counter-screen for toxin protease inhibitors: compound fluorescence; compound autofluorescence counterscreen, microsphere flow cytometry; stronger effect = higher value; fluorescence intensity (no concentration beside the values); 360,000 tested, 3.1% active;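 active = at least 3 SD above the mean of all compounds, about 16000 in these data; inconclusive = too few beads counted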;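 note: 100 nL of 1 mM stock went into each well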
PrP UTR inh: inhibition of PrP 5' UTR reporter expression | cell-based PrP 5' UTR mRNA reporter, plate reader | inhibition, % (test concentration not listed) | 340,000 tested, 0.35% active | AID 488862;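 active = every replicate at 50% or more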;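 note: 0 = median of the neutral control wells; tested in H4 reporter cells; numbers are from one replicate; inactives centre near -14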
Mtb hypoxia rep: inhibitors of hypoxia-regulated fluorescent reporter in Mycobacterium tuberculosis. M. tuberculosis hypoxia-regulated fluorescent reporter, fluorescence. fluorescence inhibition, % (concentration not given with the values). 300,000 tested, 0.1% active;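 active = 35 to 45% if threefold the growth effect, above 45% if 1.5-fold the growth effect; inactive = the rest, general growth blockers included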;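 note: wells of about 50 µL received 100 nL stock; 0% = vehicle wells and 100% = reference inhibitor wells; whole bacteria with a GFP reporter of the hypoxia response; strong numbers were not always called active; many hits fall short of the cut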
RN4220 kill: S. aureus RN4220 growth inhibition | OD600, 16 h | inhibition, % (no concentration beside the values) | 330,000 tested, 0.33% active;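 active = z-score of -3 or lower and OD600 up to 0.18 on both plates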;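 note: plate controls were untreated cells for no effect and reference antibiotic for full effect; stock transfer was 100 nL into about 80 µL; one replicate is shown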
BJeLR viability: kills HRASV12-expressing BJeLR cells. BJeLR (HRASV12) viability, CellTiter-Glo ATP luminescence, 48 h; reference of the scale not given here. inhibition, % (no concentration beside the values). 300,000 tested, 0.17% active;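 active = replicate mean above 50%; inconclusive = above 50% but judged a plate artefact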;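 note: 50 nL library stock added to about 25 µL; numbers are from one replicate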
Mtb hypoxia rep growth: second read-out of Mtb hypoxia rep, no call of its own (marks repeat the call); growth inhibition, %; measured here: M. tuberculosis growth (absorbance);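 0% = vehicle and 100% = reference antibiotic; read after six days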
Starred values were filed as active, the others as inactive; u = inconclusive; x = no result given.

Each structure is followed by: Sa ugtP lethal, Autofluor counter, PrP UTR inh, Mtb hypoxia rep, Mtb hypoxia rep growth, RN4220 kill, BJeLR viability
COc1ccc(C=CC(=O)c2ccc([N+](=O)[O-])o2)cc1OC
 : 100*, x, x, x, x, 48, x
N#CCCN(C(=O)COC(=O)COc1ccccc1Cc1ccccc1)c1ccccc1
 : 10, 8994, -16, 7, 7, 8.4, x
COc1cc2c(cc1O)CC[n+]1cc3c(OC)c(OC)ccc3cc1-2
 : 1, 4056, -27, 8, -2, 5.0, -4
COc1ccc(C(=O)CN2C(=O)NC3(CCCCCC3)C2=O)cc1
 : 5, 4410, -43, 10, 3, 3.0, -1
CCc1ccc(NC(=O)c2cnn3ccccc23)cc1
 : 10, 5349, 51*, 13, 10, 2.5, 11
CCCNC(=O)c1ccc(N2CCC3(CC2)CC(c2ccccc2)=NO3)c(NC(=O)c2ccc(Br)cc2)c1
 : x, 3094, 0, x, x, x, -9
Cc1ccc(-c2nc(C)sc2CC(=O)OCC(=O)Nc2c(F)cccc2F)cc1
 : 7, 2598, -20, 7, 0, -0.9, 4
Fc1ccc2cnc(-c3cccnc3)cc2c1
 : 10, 3820, -41, -5, -7, 10, x
Cc1ccc(C2(C)NC(=O)N(CC(=O)NCc3cccc(Cl)c3)C2=O)cc1 (stereo not given)
 : -7, 3668, -13, 2, 8, -1.5, 5
CCn1c(C)c(C)c2cc(C(=O)NCCCN3CCCC3)ccc21
 : 2, 7896, -16, -1, 12, 3.0, 7
NS(=O)(=O)c1ccc(-c2ccc(/C=N/NC(=O)c3ccccc3O)o2)cc1
 : x, 5284, -13, x, x, x, 15
CC(=O)Nc1ccccc1OCC(=O)N(Cc1ccccc1)C(C)C
 : 4, 1959, -16, 2, 0, 0.0, 10
CCN(CC)S(=O)(=O)c1ccc(C)c(NC(=O)COC(=O)CN2C(=O)NC(C)(C)C2=O)c1
 : 5, x, -17, -2, -3, 0.7, -13
CNc1c([N+](=O)[O-])cnn1-c1ccccc1F
 : 2, 4313, -32, 13, 0, 1.6, -5
Cc1ccc(-n2c(O)c(/C=N/c3ncc(Br)cc3Br)c(=O)[nH]c2=O)cc1
 : x, 4510, -20, x, x, x, 0

2 entries from above, with bars between the fields.
mol | Sa ugtP lethal | Autofluor counter | PrP UTR inh | Mtb hypoxia rep | Mtb hypoxia rep growth | RN4220 kill | BJeLR viability
Fc1ccc2cnc(-c3cccnc3)cc2c1 | 10 | 3820 | -41 | -5 | -7 | 10 | x
Cc1ccc(C2(C)NC(=O)N(CC(=O)NCc3cccc(Cl)c3)C2=O)cc1 (stereo not given) | -7 | 3668 | -13 | 2 | 8 | -1.5 | 5

(continued)
Each structure is followed by: Sa ugtP lethal, Autofluor counter, PrP UTR inh, Mtb hypoxia rep, Mtb hypoxia rep growth, RN4220 kill, BJeLR viability
CN(C)c1ccc(C=NNC(=O)CC#N)cc1
 : 2, x, x, 1, 5, 1.0, x
O=C(O)c1cccc(Nc2ncnc3c2cnn3-c2ccccc2)c1
 : -1, 3182, -40, 4, 0, 1.5, -2
O=C1CC(c2ccccc2)CC2=C1C(c1ccccn1)Nc1ccccc1N2 (stereo not given)
 : 8, 13596, -27, 1, 0, 4.8, -2
O=C(CN1CCc2ccccc2C1)NC1CCCC1
 : 4, 2654, -12, 11, 15, 1.5, 3
CCN(CC)CCNC(=O)Cn1c(C)cc2ccccc2c1=O
 : 4, 4102, -11, 21, 12, 4.5, 6
Cc1cccnc1NC(=O)c1ccc(S(=O)(=O)N2CCCCCC2)cc1
 : 2, 3960, -16, 4, 0, 2.0, -4
CCc1ccc(S(=O)(=O)NCC2(N3CCOCC3)CCCCC2)cc1
 : 4, 5570, -11, 2, 11, 4.0, x
COc1cc(/C=N/NC(=O)C(Cc2c[nH]c3ccccc23)NC(=O)OCC(C)C)cc([N+](=O)[O-])c1OCc1ccccc1 (stereo not given)
 : x, 3223, -38, x, x, x, -2
CC(=O)c1ccc(N2CCN(S(=O)(=O)c3ccc4c(c3)NC(=O)CC(=O)N4)CC2)cc1
 : -3, 6130, -15, 0, -7, 1.7, -1
CSc1cccc(CNC(=O)C2CCC(=O)N(Cc3cccc(C(F)(F)F)c3)C2)c1 (stereo not given)
 : -1, 6578, -57, 2, 10, -4.0, 8
COCCNC(=O)C(=O)Nc1cc2c3c(c1)CCC(=O)N3CCC2
 : -1, 4308, -17, 15, 10, 1.7, 3
CCCCCn1c(=NC(C)=O)c(C#N)cc2c(=O)n3ccccc3nc21
 : -8, 23665*, -38, -11, -1, -1.1, 0
CCCCCCCc1nn2c(=O)cc(O)nc2s1
 : x, 10148, -12, x, x, x, 4
COc1ccc(-c2nc(-c3ccccc3)c(-c3cccs3)[nH]2)cc1OC
 : -8, 9994, 2, -7, 15, 6.5, -11
O=C(c1ccc(-n2nc(C(F)(F)F)c3c2CCCC3)cc1)N1CCOCC1
 : 7, 1997, -16, 12, 7, 5.8, -2

(further entries)
Each structure is followed by: Sa ugtP lethal, Autofluor counter, PrP UTR inh, Mtb hypoxia rep, Mtb hypoxia rep growth, RN4220 kill, BJeLR viability
O=C(C1CCN(S(=O)(=O)c2cccc3nsnc23)CC1)N1CCc2ccccc2C1
 : -1, 4359, -4, x, x, 2.2, -2
O=C1C(C2=NC(c3ccccn3)C3C(=O)N(c4ccc(Cl)cc4Cl)C(=O)C23)=C(O)c2ccccc21 (stereo not given)
 : 0, 5282, -6, 4, 14, 3.8, 5
COc1cccc(N2CC(C)Cn3c2nc2c3c(=O)n(CCN3CCOCC3)c(=O)n2C)c1 (stereo not given)
 : 4, 15824, -11, 5, 1, 3.7, -2
COc1ccc(NC(=O)Nc2nnc(CC(=O)NCc3ccccc3)s2)cc1
 : -2, 2018, -4, -7, 12, 3.4, 0
O=C(Oc1ccc(F)cc1)N1CCOCC1
 : -1, 3671, -24, -1, -3, -2.3, -5
CC(C)(C)NC1=CC(=O)OC12CCCCC2
 : 1, 23197*, -16, 3, 6, 4.0, 10
COc1cccc(CNCc2ccc(OC)cc2OC)c1
 : 6, 4115, -13, 3, 2, 3.2, -8
CN1CCC2(O)OCCCC2C1 (stereo not given)
 : 19, 3295, -17, 3, -3, 6.2, 7
CC(=O)Nc1ccc(S(=O)(=O)NC2Cc3ccccc3C2)cc1
 : 1, 4253, -11, -9, -13, 0.4, 3
CCC(C)NC(=O)NC(Cc1ccccc1)C(=O)O (stereo not given)
 : -7, x, x, -4, -12, 1.9, x
CCOc1cc(C(=O)N2CCC3(CC2)OCCO3)cc(OCC)c1OCC
 : 10, 9625, -22, 1, 2, 1.7, 3
CS(=O)(=O)N1CCc2cc(C(=O)N3CCCCC3)ccc21
 : -2, 4392, -4, x, x, 1.6, -4
CC(=O)Nc1ccc(S(=O)(=O)NCC(C)NS(=O)(=O)c2ccc(NC(C)=O)cc2)cc1 (stereo not given)
 : -3, 9103, -14, 5, 6, 3.9, -11
CCOc1ccc(/C=C2\CCC(C3CCCC3)C2=O)cc1OC (stereo not given)
 : -2, 3242, -5, 8, 4, 0.0, -5
CCOC(=O)N1CCN(C(=O)CSCC(=O)Nc2nc(-c3ccc(C)cc3)cs2)CC1
 : 4, 4529, -20, 2, 5, 1.5, -6

Further records follow.
Each structure is followed by: Sa ugtP lethal, Autofluor counter, PrP UTR inh, Mtb hypoxia rep, Mtb hypoxia rep growth, RN4220 kill, BJeLR viability
CCC(=O)Nc1cccc(-c2cn3ccsc3n2)c1
 : -5, 2592, -26, x, x, 1.1, -8
CCC(=O)N1CCc2cc(Br)cc(S(=O)(=O)N3CCCCC3CC)c21 (stereo not given)
 : -2, 6283, -10, -11, 2, 1.7, 0
CC(/C=N/NC(=O)NC1CCCCC1)=C\c1ccccc1
 : x, 4639, -27, x, x, x, 1
Nc1ccc(S(=O)(=O)c2ccc(N)cc2)cc1
 : 7, 4228, -13, 15, 22, 4.4, -4
O=C(N/N=C/c1cn(CC(=O)N2CCOCC2)c2ccccc12)c1cccnc1
 : x, 6084, 6, x, x, x, -5
CCN1CCN(c2cc(C)c3cc(NC(=S)N(C)Cc4ccccc4)ccc3n2)CC1
 : 15, 3663, -13, -2, 11, 2.2, -7
CC(=O)NC(Cc1cccc(C)c1)C(=O)NC1CCN(S(=O)(=O)c2ccccc2)CC1 (stereo not given)
 : 12, 5204, -40, 6, 8, 2.2, 3
COC(=O)CNC(=O)C1CCN(S(=O)(=O)c2cnc[nH]2)CC1
 : 6, 5535, -15, 4, 1, 2.5, -8
CCOc1ccc(C=NOC(C)C(=O)NCc2ccc3c(c2)OCO3)cc1 (stereo not given)
 : 11, x, x, 4, 5, 1.3, x
Cc1ccc(CN2CC(C(=O)N(Cc3nnc(-c4ccccc4Cl)o3)C3CC3)CC2=O)cc1 (stereo not given)
 : 4, 5105, -30, 0, -7, 5.3, -2
C=CCN1C(=O)NC(=O)/C(=C/c2ccoc2)C1=O
 : 1, 2742, -10, 9, 1, 4.3, -1
COc1ccc(C2=NOC(c3nnc(-c4ccccc4)o3)C2)cc1 (stereo not given)
 : 2, 2845, -18, 18, 14, 4.4, -3
C=CCn1c(SCC(=O)N2CCCCC2)nnc1-c1ccncc1
 : 8, 3936, -22, 14, 8, 21, 2
COc1ccc(OC)c(CN2CCN(C(=O)c3ccc(F)cc3)CC2)c1
 : 5, 3315, -7, 18, 5, 6.3, -12
COc1cc(/C=C(\C#N)C(=O)NCC2CCCO2)cc(OC)c1OC (stereo not given)
 : 2, 2605, -4, 8, -6, -0.4, -9

Next entries:
Each structure is followed by: Sa ugtP lethal, Autofluor counter, PrP UTR inh, Mtb hypoxia rep, Mtb hypoxia rep growth, RN4220 kill, BJeLR viability
COc1ccccc1CNS(=O)(=O)c1ccc(-n2cccn2)cc1
 : 2, 6772, -1, 4, 8, 3.1, 7
COc1ccc(OC)c(Cc2nnc(CCC(=O)N3CCCCC3c3nccs3)o2)c1 (stereo not given)
 : -3, 5251, -46, -7, 10, 1.9, 2
CCCCC1=CC2=C(c3ccco3)C(=O)C(C)(OC(=O)c3ccc(OC)cc3)C(=O)C2=CN1C1CCCCC1 (stereo not given)
 : 2, 3053, -6, -1, 3, 4.5, 5
COc1cc(C=NNC(=O)c2ccc(N(C)S(=O)(=O)c3ccccc3)cc2)cc(OC)c1OC
 : -3, x, x, 5, 4, -1.8, x
COCCCNC(=O)c1cc(Sc2nnc(C)s2)nc2ccccc12
 : -2, 5978, -16, 15, -2, 1.8, -2
CCn1c(SCC(=O)NC2CCCCC2C)nnc1-c1ccc(OC)cc1 (stereo not given)
 : -1, 10953, -12, -4, 0, 0.0, 6
O=C(CSc1nnc2c(Cl)cc(C(F)(F)F)cn12)N(Cc1ccccc1)Cc1ccccc1
 : x, 2094, -31, x, x, x, 1
Cc1nnc(SCC(=O)c2c(N)n(C)c(=O)n(C)c2=O)[nH]c1=O
 : 5, 4306, -5, x, x, -1.4, 8
NC(=O)c1ccsc1NC(=O)CN1C(=O)NC2(CCCCC2)C1=O
 : -7, u, x, -10, -8, -0.3, x
CCc1nnc(NC(=O)Cc2c[nH]c3ccccc23)s1
 : -12, 4660, -17, -5, -9, -5.1, -1
Oc1[nH]c2ccccc2c1N=NC(=S)NCC1CCCO1 (stereo not given)
 : -6, 2148, -3, 6, -2, 5.1, -7
O=C1CN(C(=O)COC(=O)C23CC4CC(CC(O)(C4)C2)C3)c2ccccc2N1
 : 3, 3912, -20, 17, 12, 2.6, -3
Cc1ccc(S(=O)(=O)N2CCC(C(=O)OCC(=O)N3CCC(C)CC3)CC2)cc1C
 : 2, 5375, -68, 5, 11, -0.1, 2
Cc1c(C)c2cc(Cl)c(O)c(CN3CCCCC3)c2oc1=O
 : 3, x, x, 10, 12, 2.3, 3
Cc1ccc(C2(O)CCN3CCCCC32)cc1 (stereo not given)
 : 10, 3501, -3, x, x, 8.3, 6
O=C(CN(Cc1ccc(Cl)c(Cl)c1)S(=O)(=O)c1ccccc1)N/N=C\c1ccc2c(c1)OCO2
 : x, 4930, -13, x, x, x, 5
CNC(=O)c1ccc(=O)n(Cc2cccc(C(F)(F)F)c2)c1
 : 8, 4176, -34, 2, 9, 6.8, 1
